# RGS16-Gao HTS – modulators of RGS16 binding to Galphao, primary screen, biochemical, human proteins, multiplexed bead flow cytometry | Regulator of G-protein signaling 16 (Homo sapiens) + Guanine nucleotide-binding protein … | binding response (% of control), % at 10 µM | 220,000 tested, 0.38% active | bead-based flow cytometry RGS16-Galphao binding, fluorescence; actives lie on both sides;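 active = below 25% or above 175%, edge rows of some plates excepted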;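 also: Galphao activated by GDP with aluminum fluoride before binding; 100% = wells without compound and 0% = beads without RGS; some results beyond the cut were filed as inactive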
# GALR2 agonist – GALR2 receptor agonists, primary screen, cell-based | 140,000 tested, 0.48% active | Galanin receptor type 2 (Homo sapiens), O43603 | activation, %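 (tested at 5 µM)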 | GALR2-expressing cells, agonist activation read-out;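 active = above mean plus 3 SD of all compounds, about 5% in these data, not always enough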;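 also: 0% = vehicle buffer wells and 100% = reference agonist at full effect; tested in CHO reporter cells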
# Insulin prom inh – inhibitors of insulin promoter-driven GFP, primary screen, imaging, TRM-6 cells (human fetal islet line), eGFP reporter, cell count; reporter expression induced with tamoxifen; inhibition, % at 2 µM; 130,000 tested, 0.9% active;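 active = inhibition above the mean plus 3 SD, with well images judged a real hit on visual review, cut at about 60% in these data, passing the limit was not always enough; inconclusive = inhibition over the cutoff but images rejected on review; inactive = inhibition not above the cutoff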
# PKD1 kinase inh – inhibitors of human PKD1 kinase, biochemical, fluorescence polarization | Serine/threonine-protein kinase D1 (Homo sapiens), Q15139 | PKD1 kinase fluorescence polarization assay | inhibition, %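 (about 10 µM by stock and volumes)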 | 200,000 tested, 0.056% active;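 active = inhibition of 50% or more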;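 also: controls were vehicle for no effect and a reference inhibitor for full effect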
# Target sequence (Q15139 whole entry, looked up): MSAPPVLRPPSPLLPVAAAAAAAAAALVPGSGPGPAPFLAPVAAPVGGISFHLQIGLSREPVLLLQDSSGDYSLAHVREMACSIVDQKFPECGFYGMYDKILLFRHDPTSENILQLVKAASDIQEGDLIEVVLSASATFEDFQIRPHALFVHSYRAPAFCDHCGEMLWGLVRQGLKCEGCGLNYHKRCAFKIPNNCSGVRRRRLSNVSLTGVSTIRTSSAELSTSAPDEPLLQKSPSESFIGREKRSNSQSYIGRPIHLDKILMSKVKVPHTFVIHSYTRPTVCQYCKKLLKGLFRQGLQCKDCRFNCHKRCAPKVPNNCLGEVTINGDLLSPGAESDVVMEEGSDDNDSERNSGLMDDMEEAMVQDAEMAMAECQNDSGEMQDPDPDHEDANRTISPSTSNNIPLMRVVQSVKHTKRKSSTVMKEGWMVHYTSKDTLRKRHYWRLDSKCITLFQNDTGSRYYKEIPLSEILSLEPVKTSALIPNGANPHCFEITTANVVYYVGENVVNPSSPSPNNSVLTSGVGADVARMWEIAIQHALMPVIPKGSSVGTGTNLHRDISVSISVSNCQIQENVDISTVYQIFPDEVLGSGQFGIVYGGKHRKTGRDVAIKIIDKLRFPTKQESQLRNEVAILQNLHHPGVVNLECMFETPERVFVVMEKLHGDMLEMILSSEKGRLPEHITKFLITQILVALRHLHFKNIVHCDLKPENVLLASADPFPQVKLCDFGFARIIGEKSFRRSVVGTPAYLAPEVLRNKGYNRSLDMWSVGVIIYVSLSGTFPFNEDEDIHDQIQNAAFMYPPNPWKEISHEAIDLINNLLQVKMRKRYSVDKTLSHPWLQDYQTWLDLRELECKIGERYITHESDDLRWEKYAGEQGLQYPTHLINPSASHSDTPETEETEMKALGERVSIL
# HSV replic up – enhancers of HSV replication in host cells, fold increase, host cell viability | HSV replication augmentation in cells | maximum fold increase | 220,000 tested, 0.005% active;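 active = peak rise of 1.5-fold or more in the series; inconclusive = self-fluorescent or not available for retest; tested in PC3 cells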;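 also: first round at 10 µM; read as green reporter fluorescence; hits show the peak of a series up to 25 µM; 1 = signal of infected wells without compound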
# Insulin prom inh cell count – further read-out of Insulin prom inh, marked with its call; normalized cell count, %; measured here: cell count, toxicity; reference of the scale not given here;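 cells exposed to compound for 48 h; stained nuclei by imaging scaled within each plate; lower means fewer cells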
# HSV replic up primary fold – second read-out of HSV replic up, no call of its own (marks repeat the call); fold increase; compound at 10 µM; measured here: primary screen fold increase 10 uM; tested in PC3 cells;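 GFP signal in the first replicate; 1 = infected wells without compound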
# * marks the source's active call; other numbers are inactive results; i = inactive; ? = inconclusive; / = no result given.
SMILES,RGS16-Gao HTS,GALR2 agonist,Insulin prom inh,Insulin prom inh cell count,PKD1 kinase inh,HSV replic up,HSV replic up primary fold
Cc1ccc(NC(=O)/C=C/c2ccc(Cl)cc2)nc1,98,/,/,/,1,i,0.86
Cc1cccc(C(=O)N2c3ccccc3C(=O)OC2c2ccc3c(c2)OCO3)c1 (centres undefined),97,-0.6,/,/,4,/,/
O=C(CN(Cc1ccccc1Cl)C(=O)c1ccc(CN2CCOCC2)o1)NCc1ccccc1,94,0.1,0,82,1,i,0.94
O=C(Nc1cc(Cl)cc(Cl)c1)c1cccc(OC(F)F)c1,102,-0.8,-4,175,-10,i,1.1
CCNC(=O)NC(=O)C(C)OC(=O)C1CCN(S(=O)(=O)c2ccccc2C(=O)OC)CC1 (centres undefined),111,/,7,90,2,i,0.96
CC(C1CC1)N(C(=O)c1ccccc1[N+](=O)[O-])c1ccccc1 (centres undefined),103,/,/,/,-2,i,0.96
Cc1ccc2nc(NCc3ccccc3)[nH]c2c1,100,0.0,/,/,3,i,0.6
N#CC1=C(N)NC(SCC(=O)Nc2ccccc2)=C(C#N)C12CCCC2,101,-0.3,/,/,22,i,0.91
O=C(Nc1cccc2c1N(C(=O)c1ccco1)CCC2)c1ccco1,92,/,/,/,/,i,0.95
CCc1ccccc1NC(=O)COc1ccc2c(=O)c(Oc3cc(C)ccc3C)coc2c1,101,0.3,-27,106,0,i,0.95
Cc1nc(CC(=O)c2ccc(O)cc2O)cs1,117,-1.1,-27,78,-5,i,0.83
COc1cc(/C=C(\C#N)c2nc3ccccc3[nH]2)cc(Br)c1OCc1ccc(F)cc1,100,0.4,7,131,3,?,/
CC(=O)c1cccc(NC(=S)NC(=O)c2ccccc2C)c1,103,/,-78,84,-9,i,0.92
NC(=O)C1(N2CCCCC2)CCN(C(=O)CCCn2c(=O)[nH]c3ccsc3c2=O)CC1,37,/,/,/,-13,i,0.96
O=S(=O)(Nc1ccc(-c2nc3cccnc3s2)cc1)c1ccc(Cl)s1,98,-0.1,/,/,-11,i,0.88
Cc1ccccc1CN1CCc2c(OCC(=O)N3CCCCC3)cccc2C1=O,105,/,/,/,-3,i,1.1
COc1ccc2c(C(=O)CN(C)C3CCCCC3)c[nH]c2c1,108,-0.6,-11,86,-3,i,1
C=CCN(c1ccccc1C(=O)NCC(=O)O)S(=O)(=O)c1ccccc1C,99,/,/,/,/,i,1
CCn1c(SCC(=O)N2CCCC2)nnc1-c1ccc(N)cc1,108,-1.3,28,81,-3,i,0.91
CCOC(=O)c1c(C)sc2c1N(C(=O)CN(CC)CC)c1cc(Cl)ccc1S2,102,-0.2,/,/,2,i,0.95
CC(=O)/C(C(=N)N1CCN(Cc2ccccc2)CC1)=C(\C)O,104,-4.2,/,/,3,i,0.99
CC1CCN(C(=O)Cn2cc3c(n2)CCCC3)CC1,105,-1.4,/,/,1,i,0.9
CCN(CCCNC(=O)CN1C(=O)COc2ccccc21)c1cccc(C)c1,105,-0.2,0,45,5,i,0.66
Cc1ccc(N(C(=O)CCC(=O)Nc2cc(C)on2)C(C(=O)NC2CCCC2)c2ccccc2)cc1 (centres undefined),96,/,/,/,-8,i,1
CC(C)O/C(=N\S(=O)(=O)c1ccc(Cl)cc1)c1ccccc1,95,-0.1,-16,41,-4,i,1.1
COc1cc(C2c3c(n[nH]c3C)C(=O)N2c2ccc(Br)cc2)ccc1O (centres undefined),110,-2.5,14,108,2,i,0.92
CCOC(=O)C(c1ccccc1)C(Nc1ccccc1)c1ccccn1 (centres undefined),91,/,/,/,/,i,1.1
OCCC1CN(Cc2ccon2)CCN1Cc1ccc(F)c(F)c1 (centres undefined),108,/,/,/,-2,i,0.91
CN1C(=O)c2ccc(NC(=S)NC(=O)C(C)(C)C)cc2C1=O,98,-0.2,/,/,-2,i,1.1
Cc1ccc(Nc2nnc(SCC(=O)c3cc4ccccc4o3)s2)cc1C,112,0.1,/,/,1,i,1.1
Cc1ccc(CN(Cc2ccco2)S(=O)(=O)c2ccc(S(=O)(=O)NCC3CCCO3)cc2)cc1 (centres undefined),98,-0.9,0,122,-8,i,1
Cc1cc(C)cc(OCC(=O)NNC(=O)CCN2C(=O)c3ccccc3C2=O)c1,52,-0.1,-34,87,-6,i,0.89
CCC(=O)Nc1ccc(Nc2nc(C)c([N+](=O)[O-])c(Nc3ccc(NC(=O)CC)cc3)n2)cc1,98,2.5,/,/,7,i,0.79
CN(C(=O)COc1ccc(S(=O)(=O)N2CCOCC2)cc1[N+](=O)[O-])C1CCS(=O)(=O)C1 (centres undefined),100,/,/,/,/,i,1.1
O=C(O)c1ccc2c(c1Nc1ccccc1)C(=O)c1ccccc1C2=O,110,/,/,/,/,i,1.2
C=CCNC(=O)NC(=O)COC(=O)COc1ccc(Br)cc1F,102,-2.0,5,110,-4,i,1.1
Cc1nnc(SCCN2CCOCC2)n1C,110,-1.2,7,97,-13,i,1
O=S(=O)(c1ccccc1Cl)N1CCC(O)(c2ccc3c(c2)OCO3)CC1,100,-2.2,-82,28,6,i,0.86
COC(=O)c1ccc(NC(=S)Nc2ccccn2)cc1,/,-1.8,/,/,-4,i,0.89
O=C(O)c1ccc(NS(=O)(=O)c2ccc3c(c2)C(=O)c2cc(S(=O)(=O)Nc4ccc(C(=O)O)cc4)ccc2-3)cc1,112,/,-64,146,5,i,0.98
O=C(NC(=Nc1ccccc1)N1CCOCC1)Nc1ccccc1,94,-1.8,/,/,2,i,0.64
COc1ccc(OC)c(-n2c(-c3cccc(S(=O)(=O)N(C)C)c3)n[nH]c2=S)c1,96,/,/,/,-1,i,1
CN1CCN(C(=S)Nc2ccccc2Cl)CC1,100,-0.9,-13,121,-4,i,1.1
CCOc1ccccc1N1CCN(C(=O)c2c(-c3ccccc3Cl)noc2C)CC1,106,0.4,-14,103,-10,i,0.85
COc1ccc2c(c1)S/C(=C\C(=O)c1ccncc1)N2C,62,-2.8,0,121,-7,i,0.85
O=C1c2ccccc2C(=O)N1CCCc1nc(-c2ccncc2)no1,99,0.2,-43,105,-6,i,0.88
COc1ccc(-n2c(-c3ccco3)n[nH]c2=S)cc1,96,-2.2,/,/,-12,i,0.9
CCOc1ccccc1NC(=O)/C=C/C(N)=O,101,-0.5,6,91,-9,i,0.76
COC(=O)c1sccc1NC(=O)COc1cccc(C)c1,100,/,/,/,/,i,0.96
O=C(NCC1CCCO1)C(c1ccc(F)cc1)N(C(=O)Cn1nnc(-c2ccc(F)cc2)n1)c1cccc(O)c1 (centres undefined),111,/,/,/,-6,i,0.95
CC(/C=N/NC(=O)Cn1nccc1C)=C\c1ccc(C(C)C)cc1,101,-0.5,38,122,-3,i,0.9
Cc1ccc(C)c2[nH]c(=O)c(CCNC(=O)c3cc4ccccc4o3)cc12,100,-1.2,30,154,-6,i,0.9
COc1ccccc1OCC(O)Cn1c(Br)nc2c1c(=O)[nH]c(=O)n2C (centres undefined),101,-2.1,-38,80,5,i,0.95
Cn1c(Cc2ccccc2)[n+](C)c2ccccc21,98,/,/,/,1,i,0.89
CCCCC(=O)Nc1c(C)cc(C)cc1Cl,88,-2.1,-46,154,-4,i,1
CC1CCCCN1C(=O)C1CCCCN1S(=O)(=O)c1cccc([N+](=O)[O-])c1 (centres undefined),102,/,/,/,/,i,1.1
c1ccc2c(c1)CNc1ccccc1C2,95,-0.5,5,142,-2,i,0.82
NC(=O)c1sc(=S)n2c1[nH]c(=O)c1sccc12,101,/,/,/,-3,?,/
COc1ccc(-n2nc3c(c2NC(=O)c2ccc(S(=O)(=O)N4CCOCC4)cc2)CS(=O)C3)cc1 (centres undefined),101,/,/,/,-5,i,1
COC(=O)c1ccccc1NC(=O)CSc1nc(NC(=O)c2ccccc2)c2c(C)c(C)oc2n1,100,-4.1,-3,140,-4,i,1
# (cont.)
SMILES,RGS16-Gao HTS,GALR2 agonist,Insulin prom inh,Insulin prom inh cell count,PKD1 kinase inh,HSV replic up,HSV replic up primary fold
Cc1cc(NC(=O)CCC(=O)N(CC2CCCO2)C(C(=O)NC2CCCC2)c2ccccc2C)no1 (centres undefined),/,-1.9,42,103,-5,i,0.99
CCc1ccc2c(c1)C(=O)c1ccccc1C2=O,115,0.2,-12,95,3,i,1
CCn1c2ccccc2c2cc(NC(=O)COc3ccccc3OC)ccc21,103,-0.7,-3,119,2,i,0.72
CCn1c(NCCO)nc2c(c1=O)C(C)(CC)Cc1ccccc1-2 (centres undefined),98,/,/,/,/,i,0.95
COc1ccc2c(c1OC)C(=O)OC2Nc1nc(-c2cc3ccccc3oc2=O)cs1 (centres undefined),98,-0.4,-52,127,9,i,0.92
COc1cccc(/C=N/NC(=O)Cn2ccnc2C)c1,96,-1.4,-20,99,5,i,0.99
O=C(Nc1nccs1)NC(C(F)(F)F)C(F)(F)F,98,0.2,-24,88,0,i,0.9
COc1ccc(Cl)cc1NC(=O)C1COc2ccccc2O1 (centres undefined),103,/,7,85,1,i,0.95
COC(=O)c1cccc(NS(=O)(=O)c2ccc(OC)cc2)c1C,117,-3.5,-11,134,-8,i,0.8
O=C(O)c1ccccc1C(=O)Nc1nccs1,102,-0.7,18,108,4,i,0.92
O=C(NNS(=O)(=O)c1ccc(F)cc1F)C1Cc2c(ccc3ccccc23)O1 (centres undefined),99,-1.4,12,147,8,i,0.93
CCC(c1nnnn1Cc1ccccc1)N(Cc1cc2cc(OC)ccc2[nH]c1=O)CC1CCCO1 (centres undefined),97,-1.7,-62,106,1,i,1
O=[N+]([O-])c1ccc(C[n+]2cccc3c4ccccc4ccc32)cc1,99,/,-54,115,4,i,0.97
CCOC(=O)C(CC)Sc1nnc(COc2ccc(C)cc2)n1-c1ccccc1 (centres undefined),/,-0.6,-131,91,-3,i,0.96
Cc1nn(C(=O)c2ccc([N+](=O)[O-])cc2)c(C)c1Br,99,/,/,/,/,i,0.83
CCCC/C(O)=C1\C(=O)CC(C)(C)CC1=Nc1ccc(OC)cc1,112,-0.8,36,64,-1,i,0.98
CNC(=O)c1cc2cc(OC)ccc2oc1=O,97,-2.1,-43,151,4,i,0.81
O=S(=O)(c1ccc(Cl)nc1)N1CCN(c2ncccn2)CC1,102,/,/,/,/,i,0.88
Cc1ccc(NC(=O)COc2ccc(/C(N)=N/O)cc2)cc1C,96,-0.3,31,98,-10,i,0.84
CC(=O)Nc1ccc(OC(=O)CC2SC(=O)NC2=O)cc1 (centres undefined),100,1.2,/,/,16,i,0.68
COCc1nnc(NC(=O)c2ccc(OC)cc2OC)s1,99,/,/,/,0,i,0.87
Cn1ncc(Br)c1C(=O)Nc1c(F)c(F)cc(F)c1F,108,-0.2,55,119,1,i,0.94
Cn1c(CCC(=O)OCC(=O)Nc2ccc(Oc3ccccc3)cc2)nc(=O)c2ccccc21,107,-2.4,-11,61,1,i,0.96
Cc1ccc(NC(=O)C2CCN(S(=O)(=O)c3cnc[nH]3)CC2)cc1C,105,-3.2,33,87,0,i,0.98
Clc1ccc2nnc(Cl)n2n1,101,/,/,/,-2,i,0.9
CCC(C)NC(=O)C(=O)NC1CCCC1 (centres undefined),105,-0.6,39,145,3,i,0.95
O=C(O)COc1c(Cl)cc(/C=C2/NC(=O)NC2=O)cc1Br,103,/,-20,139,-7,i,0.95
O=C1/C(=C/c2cccnc2)N=C2CCCCCN12,101,/,/,/,-1,i,0.83

# Single records, from the list above. Screens in order: RGS16-Gao HTS	GALR2 agonist	Insulin prom inh	Insulin prom inh cell count	PKD1 kinase inh	HSV replic up	HSV replic up primary fold
# `O=C1/C(=C/c2cccnc2)N=C2CCCCCN12` is entered as 101	/	/	/	-1	i	0.83
# `Cn1c(CCC(=O)OCC(=O)Nc2ccc(Oc3ccccc3)cc2)nc(=O)c2ccccc21` is entered as 107	-2.4	-11	61	1	i	0.96
# `CCC(C)NC(=O)C(=O)NC1CCCC1` (centres undefined) is entered as 105	-0.6	39	145	3	i	0.95
# `O=C(O)COc1c(Cl)cc(/C=C2/NC(=O)NC2=O)cc1Br` is entered as 103	/	-20	139	-7	i	0.95
# `CNC(=O)c1cc2cc(OC)ccc2oc1=O` is entered as 97	-2.1	-43	151	4	i	0.81

# Assay outcomes deposited in PubChem BioAssay by several laboratories.
